Env fusion inh: HIV envelope-mediated fusion inhibition; AID 651610; inhibition, % at 12.3 µM; 360,000 tested, 1.1% active; HeLa-JRFL Env/CEM21 cell fusion, luciferase;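 active = mean replicate inhibition score of at least 50 and every replicate individually at or above 50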;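 note: 0% = plate neutral controls and 100% = maraviroc near 300 nM; one replicate is shown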
UUG fidelity: yeast start codon fidelity modulation | S. cerevisiae UUG-firefly luciferase reporter, luminescence/redox ratio | activity score, % at 18.7 µM | 350,000 tested, 0.13% active;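 active = replicate mean at a twofold rise or more, about +100% in these data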;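 note: firefly luciferase made from a UUG start codon reports start codon fidelity; reporter light over untreated wells divided by growth signal over untreated wells; some hits fall short of that in this replicate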
The depositor's hits bear a star; [ ] = another dose, or the depositor's remark. An excerpt; count on the stated rates, not on these rows.

SMILES | Env fusion inh | UUG fidelity
C[C@H](CO)N1C[C@H](C)[C@H](CN(C)C(=O)Nc2ccc(C(F)(F)F)cc2)Oc2ccc(NC(=O)NC3CCCCC3)cc2CC1=O | -7.8[16.7 µM] | -9.0
C[C@@H]1CN([C@@H](C)CO)C(=O)c2cc(NC(=O)Nc3ccc(C(F)(F)F)cc3)ccc2O[C@H]1CN(C)Cc1ccc(C(F)(F)F)cc1 | 6.6[16.7 µM] | -6.4
C=C/C=C/[C@@H]1C(=C)CN2[C@H]1[C@H](Cc1ccccc1)OC(=O)C21CCCC1 | -0.3[16.7 µM] | 3.4
C[C@H](CO)N1C[C@H](C)[C@H](CN(C)S(=O)(=O)c2cn(C)cn2)OCCCC[C@H](C)Oc2ccc(NS(=O)(=O)c3ccc(F)cc3)cc2C1=O | 17.7[16.7 µM] | 11.2
C[C@@H]1CN([C@@H](C)CO)C(=O)c2cc(-c3cccc(C(=O)N(C)C)c3)cnc2O[C@@H]1CN(C)C(=O)Cc1ccccn1 | 11.3[16.7 µM] | -10.2
C[C@H](O)C#Cc1ccc2c(c1)O[C@H](CN(C)CC1CC1)[C@@H](C)CN([C@@H](C)CO)S2(=O)=O | -1.8[16.7 µM] | -19.7
CCS(=O)(=O)NCC[C@@H]1CC[C@@H](NC(=O)C2CCOCC2)[C@H](CO)O1 | -15.5[16.7 µM] | -9.6
CC(=O)N[C@H]1C=C[C@H](CC(=O)NCC2CCCCC2)O[C@@H]1CO | 1.6[16.7 µM] | -19.6
COc1ccc(CN(C)C[C@@H]2Oc3c(NC(=O)C4CCCCC4)cccc3C(=O)N([C@@H](C)CO)C[C@@H]2C)cc1 | 1.5[16.7 µM] | 14.3
CCNC(=O)C[C@@H]1CC[C@H]2[C@@H](COc3ccc(NC(=O)c4cc(C)on4)cc3C(=O)N2C)O1 | 8.2[16.7 µM] | 2.7
C[C@@H]1CCCCO[C@H](CN(C)Cc2ccncc2)[C@@H](C)CN([C@H](C)CO)C(=O)c2cc(NC(=O)CCC(F)(F)F)ccc2O1 | 24.1[16.7 µM] | -9.2
C[C@@H]1CCCCO[C@@H](CN(C)C(=O)CCC(F)(F)F)[C@H](C)CN([C@@H](C)CO)C(=O)c2cc(NS(=O)(=O)c3cccs3)ccc2O1 | -0.3[16.7 µM] | 13.0
CO[C@H]1CN(C)C(=O)c2ccc(NS(=O)(=O)c3c(C)noc3C)cc2OC[C@H](C)NC[C@H]1C | -7.3[16.7 µM] | -2.0
C[C@@H]1CN([C@H](C)CO)C(=O)c2cc(C#Cc3ccccc3)cnc2O[C@@H]1CN(C)C(=O)c1ccccn1 | 12.5[16.7 µM] | -4.8
C[C@@H]1CN([C@H](C)CO)C(=O)c2cc(C#Cc3ccccn3)cnc2O[C@@H]1CN(C)CC1CCOCC1 | -13.7[16.7 µM] | 0.5
CN1CCN(C(=O)C[C@H]2C[C@H]3c4cc(NC(=O)C5CCOCC5)ccc4O[C@H]3[C@H](CO)O2)CC1 | -0.5[16.7 µM] | -2.8
CC(=O)N[C@H]1CC[C@@H](CCNC(=O)C2CC2)O[C@H]1CO | 7.1[16.7 µM] | -10.5
Cc1ccc(S(=O)(=O)N(C)C[C@@H]2Oc3ccc(NS(=O)(=O)c4ccc(Cl)cc4)cc3CC(=O)N([C@H](C)CO)C[C@@H]2C)cc1 | 56.0*[16.7 µM] | 6.3
C[C@@H]1CN([C@@H](C)CO)C(=O)c2cc(C#Cc3ccc(F)cc3)cnc2O[C@H]1CN(C)CC1CCOCC1 | 7.9[16.7 µM] | 44.4
C[C@@H]1CN([C@@H](C)CO)C(=O)c2cc(NC(=O)Cn3cnnn3)ccc2O[C@H]1CN(C)S(C)(=O)=O | -16.8[16.7 µM] | -14.6
C[C@@H]1CN([C@H](C)CO)C(=O)c2cc(C3=CCCC3)cnc2O[C@@H]1CN(C)C(=O)Nc1ccc(F)cc1 | 4.5[16.7 µM] | 10.0
CC(C)NC(=O)Nc1ccc2c(c1)C(=O)N(C)[C@H]1CC[C@H](CC(=O)Nc3ccccc3)O[C@@H]1CO2 | 4.4[16.7 µM] | 5.8
C[C@@H]1CN([C@@H](C)CO)S(=O)(=O)c2ccc(C#CCN(C)C)cc2O[C@H]1CN(C)S(C)(=O)=O | -6.0[16.7 µM] | 18.0
CC(C)C#Cc1ccc([C@H]2[C@@H](C#N)N(C(=O)C3CC3)[C@@H]2CO)cc1 | 26.3[16.7 µM] | -0.2
C[C@H](CO)N1C[C@H](C)[C@H](CN(C)C(=O)CCC(F)(F)F)OCCCC[C@H](C)Oc2ccc(NS(=O)(=O)c3cccs3)cc2C1=O | -34.1[16.7 µM] | 97.3
O=C(Nc1ccccc1F)N[C@@H]1CC[C@@H](CCNS(=O)(=O)c2ccccc2)O[C@@H]1CO | -12.8[16.7 µM] | 1.0
Cc1ccc(S(=O)(=O)NCC[C@H]2CC[C@H](NC(=O)C3CCOCC3)[C@@H](CO)O2)cc1 | -13.1[16.7 µM] | -2.1
COc1cccc(NC(=O)N(C)C[C@H]2Oc3ncc(C#Cc4ccccc4)cc3C(=O)N([C@H](C)CO)C[C@H]2C)c1 | 31.3[16.7 µM] | -6.3
COc1ccccc1C#Cc1cnc2c(c1)C(=O)N([C@@H](C)CO)C[C@H](C)[C@H](CN(C)C)O2 | 8.7[16.7 µM] | 0.9
Cc1noc(C)c1NC(=O)N(C)C[C@H]1OCCCC[C@@H](C)Oc2ccc(N(C)C)cc2C(=O)N([C@H](C)CO)C[C@@H]1C | 7.0[16.7 µM] | -7.1
C[C@H]1CN([C@@H](C)CO)S(=O)(=O)c2ccc(C#CC3CC3)cc2O[C@H]1CN(C)C(=O)Cc1ccncc1 | 21.0[16.7 µM] | -19.9
C[C@@H]1CN([C@@H](C)CO)C(=O)c2cc(-c3ccc(C#N)cc3)cnc2O[C@H]1CN(C)C(=O)c1cccnc1 | -4.0[16.7 µM] | 7.6
Cc1ccc(S(=O)(=O)Nc2ccc3c(c2)C(=O)N([C@H](C)CO)C[C@@H](C)[C@H](CN(C)Cc2ccc(-c4ccccc4)cc2)O3)cc1 | -15.1[16.7 µM] | 0.4
COc1ccc(NC(=O)Nc2ccc3c(c2)C(=O)N([C@H](C)CO)C[C@H](C)[C@H](CN(C)C(=O)Nc2c(C)noc2C)OCCCC[C@@H](C)O3)cc1 | 20.8[16.7 µM] | -8.0
COc1ccc(NC(=O)N(C)C[C@@H]2Oc3ccc(NC(=O)C4CC4)cc3CC(=O)N([C@H](C)CO)C[C@@H]2C)cc1 | -0.1[16.7 µM] | -0.6
Cc1ccc(-c2cnc3c(c2)C(=O)N([C@H](C)CO)C[C@H](C)[C@H](CN(C)C(=O)Cc2ccccc2)O3)cc1 | 27.4[16.7 µM] | 10.3
C[C@@H]1CN([C@H](C)CO)S(=O)(=O)c2ccc(C3=CCCCC3)cc2O[C@@H]1CN(C)C(=O)Cc1ccccc1 | 10.1[16.7 µM] | -6.6
C[C@@H]1CN([C@H](C)CO)C(=O)Cc2cc(NC(=O)CCN3CCOCC3)ccc2O[C@@H]1CN(C)C(=O)NC1CCCCC1 | 1.5[16.7 µM] | 9.2
C[C@H](CO)N1C[C@H](C)[C@H](CN(C)C(=O)Nc2cccc3ccccc23)Oc2c(NC(=O)Nc3cccc4ccccc34)cccc2C1=O | -4.0[16.7 µM] | -1.2
O=C(C[C@@H]1CC[C@H](NC(=O)CN2CCOCC2)[C@@H](CO)O1)NC1CCCCC1 | -11.8[16.7 µM] | -3.2
C[C@@H]1CCCCO[C@H](CN(C)C(=O)NC2CCCCC2)[C@@H](C)CN([C@H](C)CO)C(=O)c2cc(NS(=O)(=O)c3ccc(F)cc3)ccc2O1 | -41.5[16.7 µM] | 10.6
Cc1ccc(CN(C)C[C@H]2OCc3cn(nn3)CCCC(=O)N([C@@H](C)CO)C[C@@H]2C)cc1 | 3.0[16.7 µM] | -4.0
C[C@@H]1CN([C@H](C)CO)C(=O)Cc2cc(NS(=O)(=O)c3cccs3)ccc2O[C@H]1CN(C)C(=O)Nc1cccc2ccccc12 | -3.3[16.7 µM] | 6.5
CCOC(=O)C(C(=O)OCC)C(c1ccccc1)N1CCN(c2ccccc2)CC1 (stereo not given) | 5.7 | -6.2
C[C@@H](NC(=O)C[C@H]1C=C[C@H](NC(=O)C2CCC2)[C@@H](CO)O1)c1ccccc1 | -5.8[16.7 µM] | -12.1
CC(C)CC#Cc1cnc2c(c1)C(=O)N([C@@H](C)CO)C[C@@H](C)[C@@H](CN(C)C(=O)c1ccc(F)cc1)O2 | 20.8[16.7 µM] | 3.6
Cc1noc(C)c1NC(=O)N[C@H]1CC[C@H](CC(=O)NCc2ccc(Cl)c(Cl)c2)O[C@H]1CO | 9.9[16.7 µM] | -17.3
O=C(NCC[C@H]1CC[C@@H](NC(=O)C2CCC2)[C@@H](CO)O1)c1ccc(F)cc1 | -16.7[16.7 µM] | -0.7
CC(C)NC(=O)N(C)C[C@@H]1OCCCC[C@H](C)Oc2ccc(NC(=O)Nc3ccc(C(F)(F)F)cc3)cc2C(=O)N([C@H](C)CO)C[C@@H]1C | 14.5[16.7 µM] | 3.8
CCC(=O)N(C)C[C@H]1Oc2ncc(C#Cc3ccncc3)cc2C(=O)N([C@@H](C)CO)C[C@H]1C | 1.6[16.7 µM] | -11.4
CCC(=O)N(C)C[C@H]1Oc2cc(C#C[C@H](C)O)ccc2S(=O)(=O)N([C@@H](C)CO)C[C@@H]1C | -21.5[16.7 µM] | 1.7
C[C@@H]1CN([C@H](C)CO)C(=O)c2cc(-c3cccc(F)c3)cnc2O[C@@H]1CN(C)Cc1cccc(F)c1 | 23.8[16.7 µM] | -17.5
C[C@H](CO)N1C[C@H](C)[C@H](CN(C)S(=O)(=O)c2ccccc2)Oc2ncc(-c3cccc(C(=O)N(C)C)c3)cc2C1=O | -19.7[16.7 µM] | -4.2
COc1ccc(NC(=O)Nc2ccc3c(c2)C(=O)N([C@H](C)CO)C[C@H](C)[C@H](CN(C)S(=O)(=O)c2cn(C)cn2)OCCCC[C@@H](C)O3)cc1 | 21.1[16.7 µM] | 6.6
COc1ccc(CN(C)C[C@H]2OCCCC[C@H](C)Oc3ccc(N(C)C)cc3C(=O)N([C@@H](C)CO)C[C@@H]2C)cc1 | 11.0[16.7 µM] | 18.8
C[C@@H]1CCCCO[C@@H](CN(C)C(=O)c2ccncc2)[C@H](C)CN([C@H](C)CO)C(=O)c2cc(N(C)C)ccc2O1 | -17.8[16.7 µM] | -9.2
CNC[C@@H]1OCCCC[C@@H](C)Oc2ccc(NC(=O)C3CCCCC3)cc2C(=O)N([C@@H](C)CO)C[C@H]1C | 11.6[16.7 µM] | 2.5
COc1ccc(CN(C)C[C@@H]2Oc3ccc(NC(=O)Nc4cccc5ccccc45)cc3C(=O)N([C@H](C)CO)C[C@H]2C)cc1 | 4.0[16.7 µM] | 0.0
C[C@@H]1CN([C@H](C)CO)C(=O)c2cccc(NC(=O)Nc3ccc4c(c3)OCO4)c2O[C@@H]1CN(C)C(=O)Nc1ccc2c(c1)OCO2 | 1.9[16.7 µM] | -0.4
COc1ccc(CN2C(=O)C(CC(=O)NCc3ccco3)CC(C(=O)N3CCOCC3)=C2C)cc1 (stereo not given) | -6.2 | 7.5

Brought forward from above: 2 entries, followed by the next part.
SMILES | Env fusion inh | UUG fidelity
C[C@@H]1CN([C@H](C)CO)C(=O)c2cccc(NC(=O)Nc3ccc4c(c3)OCO4)c2O[C@@H]1CN(C)C(=O)Nc1ccc2c(c1)OCO2 | 1.9[16.7 µM] | -0.4
COc1ccc(CN2C(=O)C(CC(=O)NCc3ccco3)CC(C(=O)N3CCOCC3)=C2C)cc1 (stereo not given) | -6.2 | 7.5
COc1ccc(NC(=O)Nc2ccc3c(c2)C(=O)N([C@@H](C)CO)C[C@@H](C)[C@@H](CN(C)CC2CCCCC2)OCCCC[C@H](C)O3)cc1 | 11.6[16.7 µM] | 4.8
Cc1ccc(S(=O)(=O)N[C@H]2CC[C@H](CCNC(=O)CN3CCOCC3)O[C@H]2CO)cc1 | -9.6[16.7 µM] | 0.1
COc1ccc(S(=O)(=O)Nc2cccc3c2O[C@@H](CN(C)Cc2ccccc2)[C@H](C)CN([C@@H](C)CO)C3=O)cc1 | -14.2[16.7 µM] | -1.9
CO[C@H]1CN(C)C(=O)c2cc(NC(=O)Nc3cc(F)ccc3F)ccc2OC[C@H](C)N(C(=O)c2ccccn2)C[C@H]1C | -2.4[16.7 µM] | -2.2
COCC(=O)Nc1ccc2c(c1)C(=O)N(C)[C@@H]1CC[C@H](CC(=O)O)O[C@@H]1CO2 | -21.8[16.7 µM] | -3.6
C/C=C/c1ccc2c(c1)O[C@H](CN(C)C(=O)Cc1ccccc1)[C@@H](C)CN([C@H](C)CO)S2(=O)=O | 17.3[16.7 µM] | 0.7
O=C(C[C@@H]1C[C@@H]2c3cc(NC(=O)Nc4ccccc4)ccc3O[C@@H]2[C@H](CO)O1)NC1CCCC1 | -6.3[16.7 µM] | -3.6

Compound profiles, as listed above. Order of screens: Env fusion inh | UUG fidelity
`CC(=O)N[C@H]1C=C[C@H](CC(=O)NCC2CCCCC2)O[C@@H]1CO` is listed with 1.6[16.7 µM] | -19.6
`C/C=C/c1ccc2c(c1)O[C@H](CN(C)C(=O)Cc1ccccc1)[C@@H](C)CN([C@H](C)CO)S2(=O)=O` is listed with 17.3[16.7 µM] | 0.7
`Cc1ccc(S(=O)(=O)NCC[C@H]2CC[C@H](NC(=O)C3CCOCC3)[C@@H](CO)O2)cc1` is listed with -13.1[16.7 µM] | -2.1
`C[C@@H]1CN([C@H](C)CO)S(=O)(=O)c2ccc(C3=CCCCC3)cc2O[C@@H]1CN(C)C(=O)Cc1ccccc1` is listed with 10.1[16.7 µM] | -6.6
`COc1cccc(NC(=O)N(C)C[C@H]2Oc3ncc(C#Cc4ccccc4)cc3C(=O)N([C@H](C)CO)C[C@H]2C)c1` is listed with 31.3[16.7 µM] | -6.3
